# Screening results: PubChem BioAssay, National Center for Advancing Translational Sciences (NCATS)
# PINK1 modulator – modulators of PINK1 expression; PINK1 immunofluorescence, high-content cytometry, 24 h; Potency, µM (top dose mostly 76.6 µM), without a hit: at the highest dose activation (PINK1 increase), most hits filed as activators; 410,000 compounds, 0.2% hits; AID 624263; active = well fitted activation curve with a large enough effect; inconclusive = small, poorly fitted or top-dose-only effect; inactive = flat fitted curve, though single readings scatter; cell line not stated here;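 note: potency is the fitted concentration of half-maximal effect; % of control where 0% means no effect; nearly all actives have a fitted effect of over 65% in size; a mitochondrial uncoupler was the plate control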
#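 PINK1 protein level read as immunofluorescence by microplate cytometer in a fixed, stained stable cell line after 24 h exposure to five compound concentrations, with CCCP as control.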
# TRPML1 agonist – activates the human TRPML1 channel; Q9GZU1; TRPML1-expressing cells, Ca2+ dye fluorescence, FDSS; host cell line not named in the record; reference of the full effect not given here; activation, % (concentration not given with the values); 410,000 compounds, 0.12% hits; AID 624414; in the data active = activation above about 50%; inconclusive = about 30% to 50%; inactive = below about 30%; note: 0% is about no effect; the text of the record puts the active cut at 80%
# Target sequence (Q9GZU1 whole entry, looked up): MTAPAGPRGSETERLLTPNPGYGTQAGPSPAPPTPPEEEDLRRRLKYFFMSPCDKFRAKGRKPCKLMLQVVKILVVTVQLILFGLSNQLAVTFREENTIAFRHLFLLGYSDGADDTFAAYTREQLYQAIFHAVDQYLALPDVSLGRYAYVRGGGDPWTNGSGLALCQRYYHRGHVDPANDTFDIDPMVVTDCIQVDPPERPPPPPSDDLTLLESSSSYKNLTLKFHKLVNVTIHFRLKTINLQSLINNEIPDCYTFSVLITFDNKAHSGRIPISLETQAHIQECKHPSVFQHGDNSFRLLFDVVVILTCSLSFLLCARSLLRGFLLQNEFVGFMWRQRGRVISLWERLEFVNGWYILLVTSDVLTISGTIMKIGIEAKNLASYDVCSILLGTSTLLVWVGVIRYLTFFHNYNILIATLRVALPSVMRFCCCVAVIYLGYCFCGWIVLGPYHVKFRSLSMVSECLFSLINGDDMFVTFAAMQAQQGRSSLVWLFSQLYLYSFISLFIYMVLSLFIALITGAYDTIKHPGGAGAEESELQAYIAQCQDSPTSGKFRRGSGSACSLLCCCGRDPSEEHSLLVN
#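 Cells: TRPML1-DL, 1X Tet inducer, ~16 h at 37 degrees C/5% CO2. Dye: ABD Ca8 no-wash + quencher, 45-90 min RT. Read: 10 s baseline, compound add, 110 s agonist phase; 54-4 EC80 (4uM final), 110 s antagonist phase.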
# D2 ag – agonists of human D2 dopamine receptor (beta-arrestin). P14416. DiscoveRx PathHunter D2 beta-arrestin, luminescence, 90 min; 100% = 57 uM dopamine signal. activation, % (test concentration not listed). 360,000 compounds, 0.084% hits. AID 624465; in the data active = activation above about 40%; inconclusive = about 15% to 40%; inactive = below about 15%; note: compound concentration not given in the record; the text of the record calls up to 30% inactive
# Target sequence (P14416 whole entry, looked up): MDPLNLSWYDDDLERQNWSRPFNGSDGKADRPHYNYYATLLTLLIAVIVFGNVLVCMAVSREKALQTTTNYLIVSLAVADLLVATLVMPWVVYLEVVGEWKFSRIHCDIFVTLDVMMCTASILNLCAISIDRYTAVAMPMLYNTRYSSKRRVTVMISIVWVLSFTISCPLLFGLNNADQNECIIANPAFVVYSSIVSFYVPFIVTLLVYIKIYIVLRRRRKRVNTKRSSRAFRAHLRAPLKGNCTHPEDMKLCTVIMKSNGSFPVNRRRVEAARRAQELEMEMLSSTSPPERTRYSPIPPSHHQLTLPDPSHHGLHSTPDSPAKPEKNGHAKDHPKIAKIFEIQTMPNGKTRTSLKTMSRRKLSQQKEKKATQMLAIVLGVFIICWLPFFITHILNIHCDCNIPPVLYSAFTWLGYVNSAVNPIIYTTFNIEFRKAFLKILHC
#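 Agonist mode: compounds alone added to overnight-plated D2 PathHunter cells for 90 min at 37 C, with 57 uM final dopamine (EC100) defining full response. Beta-arrestin recruitment detected by chemiluminescent reagent, read after 1 h at ambient temperature.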
# Six1-Eya2 inh – Six1/Eya2 interaction inhibition. Q15475+O00167. AlphaScreen GST-Six1/His-Eya2 binding, biochemical; active compounds read low; control for the full effect not named in the record. activity change, % (test concentration not listed). 360,000 compounds, 0.56% hits; in the data active = activity change below about -65%; inconclusive = about -30% to -65%; inactive = above about -30%; note: % is set by controls: 0 for no effect and ±100 for the full control effect
#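 Homogeneous AlphaScreen proximity assay pairing GST-Six1 with His-tagged Eya2 (added as 5X mix: 250 nM and 500 nM) in 50 mM Tris pH 8.0, 300 mM NaCl, 1 mM TCEP. Glutathione donor and nickel acceptor beads; 1 h, 37 °C, dark.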
# D2 potentiator – potentiates the human D2 dopamine receptor allosterically | P14416 | DiscoveRx D2 beta-arrestin cells, luminescence, 90 min; 100% = 57 uM dopamine signal | potentiation, % (no concentration beside the values) | 360,000 compounds, 0.23% hits | AID 624464; active = potentiation of 50% or more; inconclusive = 30% to 50%; inactive = 30% or less;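 note: compound concentration not given in the record; tested on top of an EC20 dose of dopamine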
#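 D2 cells co-treated with compound plus 50 nM dopamine (EC20) for 90 min at 37 deg C to detect potentiation. Beta-arrestin recruitment was read as enzyme-fragment luminescence after 1 h at ambient temperature. Full response was set by 57 uM dopamine.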
# TRPML1 inh – human mucolipin-1 channel inhibition | AID 624415 | 390,000 compounds, 0.02% hits | activity change, negative = inhibition, % (concentration not given with the values) | TRPML1-inducible cells, Ca2+ dye fluorescence, FDSS; active compounds read low; inhibition of EC80 agonist-evoked calcium signal; in the data active means activity change below about -50%; inconclusive means about -30% to -50%; inactive means above about -30%;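 note: stimulus is agonist 54-4 at its EC80 concentration; % is set by controls: 0 for no effect and ±100 for the full control effect; the text of the record puts the active cut at -80%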
#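 TRPML1-DL cells, Tet-induced overnight (~16 h, 37 °C) at 1,500 cells/well, were loaded with Ca8 no-wash dye plus quencher for 45-90 min at room temperature. Compounds were pinned during FDSS kinetic reading; agonist 54-4 at EC80 (4 uM final) then added.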
# Numbers without * were called inactive; ? = inconclusive; . = not tested or not shown; [ ] = dose if it differs, or a comment.
SMILES,PINK1 modulator,TRPML1 agonist,D2 ag,Six1-Eya2 inh,D2 potentiator,TRPML1 inh
CCc1cccc(C)c1NC(=O)CCOc1ccccc1,3.2%,0.1,3.4,4.5,3.4,1.8
COCc1ccc(CN2CCC(C(=O)Nc3cccc(-c4cccc(Cl)c4)c3)CC2)o1,-1.8%,-0.2,-1.2,-29.6,-20.9,26.0
COc1cc(C(C[N+](=O)[O-])c2c(-c3ccccc3)cc3ccccn23)cc(OC)c1OC (stereo unspecified),11.7%,-0.2,-4.7,-6.5,-12.0,19.3
CCOc1cc(/C=N/NC(N)=O)cc(Br)c1OCC(=O)Nc1ccccc1C,-2.0%,-0.9,-1.8,-14.3,53.1*,19.6
COc1cccc(CCNC(=O)CCc2nnc(-c3ccc4c(c3)OCO4)o2)c1,-0.1%,-1.1,1.5,-1.6,-7.1,-7.9
COc1ccc(N2CCN(C(=O)CNC(=O)c3ccco3)CC2)cc1,-0.9%,0.6,-2.6,1.6,-14.5,40.2
CCC(c1ccccc1)c1nc(-c2cccnc2)no1 (stereo unspecified),3.7%,-1.3,-0.4,0.5,-7.1,-7.3
COc1ccc2c(c1OC)C(=O)N1c3ccccc3COC21 (stereo unspecified),-1.8%,1.8,-1.4,0.9,-1.6,12.1
O=c1[nH]c2ccccc2nc1-c1nnnn1Cc1ccccc1,0.4%,-0.7,.,-2.0,.,.
O=C1N=c2ccccc2=C1c1sc(=S)n(Cc2ccccc2Cl)c1O,3.7%,1.7,?,-0.9,19.1,29.4
CCC(C)[C@@H](CN(N=O)[C@@H](Cc1ccccc1)CN(C)N=O)N(CCc1ccccc1)N=O (stereo partly specified),2.3%,-0.1,-3.2,-4.8,-15.1,6.3
COc1ccc(-c2ocnc2C(=O)N2CCN(C(c3ccccc3)c3ccccc3)CC2)cc1,8.9%,4.3,-4.6,1.5,-1.6,5.1
CSc1nc(-c2ccccc2)nc(NC(=O)C(C)C)c1C(C)=O,5.5%,1.7,-0.8,4.8,-10.8,-7.7
Cc1cccc(OCC(=O)OCC(=O)c2c(N)n(C)c(=O)n(C)c2=O)c1,0.3%,0.0,-2.2,2.4,-8.0,-6.8
Cc1sc2ncn(CC(=O)NCCN3CCOCC3)c(=O)c2c1S(=O)(=O)N1CCC(C)CC1,1.5%[38.3 µM],0.1,-0.3,-0.3,2.6,5.1
O=C(Nc1ccc([N+](=O)[O-])cn1)c1cc(-c2cccc(Br)c2)nc2ccccc12,5.4%,0.6,-3.2,-1.5,-16.7,?
NC(=O)COC(=O)c1ccc2noc(-c3ccccc3)c2c1,-1.7%,0.5,?,4.5,3.1,-13.6
COC(=O)c1c(C(=O)OC)c(-c2ccc(Cl)c(Cl)c2)n2c1CCC2,13.0%[38.3 µM],1.9,0.1,?,2.9,33.1
COc1ccc(CCNC(=O)CSCc2ccc(C)cc2)cc1OC,1.1%,-0.8,-3.6,-5.3,-0.7,3.7
O=S(=O)(NCCS(=O)(=O)N1CCN(c2ccccc2)CC1)c1ccc(F)cc1,1.6%,0.6,-3.4,8.3,2.2,-7.6
CCCCc1ccc(-c2csc(/C(C#N)=C/c3ccco3)n2)cc1,?,2.1,0.7,27.0,-3.1,-14.7
O=C(OCC(=O)N1CCN(c2ccccc2)CC1)c1ccc(Cl)cc1[N+](=O)[O-],0.3%,0.9,0.4,-21.3,17.4,26.2
O=c1[nH][nH]c(=O)c2nc(Nc3ccccc3)ncc12,0.5%,-0.3,-0.9,-10.6,-7.5,7.5
CCOC(=O)c1c(C)n(C)c2cc(Br)c(O)c(O)c12,1.2%,-0.5,1.3,4.2,6.6,27.1
CCOC(=O)c1c(CSc2ccccc2)oc2cc(Br)c(O)c(CN(C)C)c12,-1.0%,-1.0,-3.3,-20.1,-11.2,-1.2
CCOC(=O)C1=CN(Cc2ccc(OC)cc2)C=C(C(=O)OCC)C1c1cccs1,1.5%,6.9,2.5,74.9,0.8,6.7
COC(=O)c1cc2c(n1S(=O)(=O)c1ccc(C)cc1)C(=O)C(=O)c1[nH]cc(C(=O)OCc3ccccc3)c1-2,-6.0%,-0.2,?,-1.0,?,-0.8
COc1ccccc1CNC(=O)C1(C)CCN1Cc1ccc2ccccc2c1 (stereo unspecified),?,-0.6,-3.0,-9.5,-9.4,.
COc1ccc2[nH]c3c(=O)n4c(nc3c2c1)SCCC4,0.2%,1.2,2.4,-9.4,9.1,-6.4
COc1cc(C(=O)NCc2nnnn2-c2ccc(C)c(C)c2)cc(OC)c1OC,0.0%,-0.3,.,.,.,7.5
COc1cc(C(=S)N2CCOCC2)cc(OC)c1OS(=O)(=O)c1ccc(NC(C)=O)cc1,4.6%[38.3 µM],-0.8,0.5,-5.6,1.3,-2.6
CN(Cc1ccccc1)c1ccc2cc(S(=O)(=O)N3CCCCC3)ccc2n1,0.7%,1.9,.,.,.,-13.5
COc1cc(/C=C2\C(=O)N(c3ccc(S(N)(=O)=O)cc3)N=C2C)ccc1OC(=O)c1ccco1,1.2%,-0.2,-6.0,-6.4,-2.0,11.8
Nc1[nH][nH]c(=O)c1N=Nc1cccc(Cl)c1,-1.2%,-1.0,-6.2,-1.6,-13.6,-5.1
O=C(NCc1cc(Cl)cc(Cl)c1)c1ccc2nc([C@H]3C[C@H](O)[C@@H](CO)O3)[nH]c2c1,-0.2%,-0.4,-4.0,-10.8,-9.8,-16.0
CC(C)(C)C(=O)CSc1ccc(S(=O)(=O)N2CCN(Cc3ccccc3)CC2)cn1,2.4%,1.0,-4.8,-2.5,-11.3,19.4
CCCOc1ccc(C(=O)NCC(c2ccco2)N(C)C)cc1OC (stereo unspecified),0.0%,0.7,0.4,1.6,-23.2,-1.5
COc1c(Cl)cc(Cl)cc1C(=O)Nc1cccc2cccnc12,0.4%,1.1,.,.,.,7.4
OC1(CC#CCN2CCCCC2)c2ccccc2-c2ccccc21,0.1%,3.1,-3.0,-2.0,-14.0,26.6
Cc1nn(-c2ccc(N3CCCC3)nn2)c(C)c1CCC(=O)NCc1ccc(F)cc1,2.3%,-0.1,.,.,.,-4.6
CCOC(=O)C1(Cc2cccc(Cl)c2)CCCN(C(=O)CCC(=O)N(C)C)C1 (stereo unspecified),-0.7%,0.1,-1.7,5.9,-8.2,12.9
Cc1nn(C)c(Cl)c1CN1CCN(CC(C)C)C(CCO)C1 (stereo unspecified),0.6%,-0.3,-4.9,-4.6,-5.1,3.2
Cc1cc(NC(=O)CSc2nnnn2-c2ccc(C(C)C)cc2)no1,1.6%,1.6,-2.2,-6.3,-4.3,4.0
O=C(NC(Cc1ccccc1)C(=O)O)/C(=C\c1ccc(Cl)cc1)NC(=O)c1ccco1 (stereo unspecified),-1.5%,0.5,-0.5,-1.5,-4.2,-2.1
N#C/C(=C\c1ccc(-c2ccccc2)o1)C(=O)Nn1cnnc1,-1.3%,0.6,-7.4,0.9,-26.2,-0.4
CCOc1cc(C(N)=O)cc(Br)c1OC,-1.1%,2.9,-1.9,-2.2,-23.2,20.2
COc1ccccc1-n1cnnc1SC(C)C(=O)NCC1CCCO1 (stereo unspecified),4.6%,0.1,0.0,2.5,2.0,-13.4
Cc1ccc(C2(C)NC(=O)N(CC(=O)Nc3nc(-c4ccccn4)cs3)C2=O)cc1 (stereo unspecified),-4.6%,6.2,3.0,-91.6*,26.4,-2.6
CCc1ccc(OCC(=O)NNC(=O)c2c(CC)noc2C)cc1,-7.1%,0.9,-2.0,0.9,-4.8,29.3
C[C@@H]1CN([C@@H](C)CO)C(=O)c2cc(NC(=O)c3ccncc3)ccc2O[C@@H](C)CCCCO[C@@H]1CN(C)C(=O)Cc1ccccc1,-0.8%,0.3,-1.7,-4.9,-0.6,-6.7

# Records above shown as hits in D2 potentiator:
canonical_smiles	PINK1 modulator	D2 ag	Six1-Eya2 inh	D2 potentiator	TRPML1 inh
CCOc1cc(/C=N/NC(N)=O)cc(Br)c1OCC(=O)Nc1ccccc1C	-2.0%	-1.8	-14.3	53.1*	19.6

# The list goes on:
SMILES,PINK1 modulator,TRPML1 agonist,D2 ag,Six1-Eya2 inh,D2 potentiator,TRPML1 inh
Cc1ccc(Cn2c(C(=O)O)c(CNCc3ccccc3Cl)c3ccc(C)cc32)cc1,-0.4%,1.0,.,.,.,3.4
Cc1ccc(NC(=O)CN2C(=O)COc3ccc(C)cc32)nc1,0.7%[38.3 µM],-0.6,-1.0,0.7,-16.4,8.7
CCc1nc2ccc(C(=O)N(C)CC(=O)Nc3ccccc3C(F)(F)F)cc2nc1CC,0.2%,-1.3,-1.2,5.9,1.6,19.8
Cc1cc(=O)c(C(=O)O)nn1-c1ccccc1Cl,3.2%,-0.1,-0.8,-0.5,-8.8,-14.4
Cc1cccc(NC(=S)Nc2cccc3ccccc23)c1,-0.2%,2.7,6.9,-9.7,-12.2,5.0

# Eleven successive records out of the list so far, quoted:
SMILES,PINK1 modulator,TRPML1 agonist,D2 ag,Six1-Eya2 inh,D2 potentiator,TRPML1 inh
N#C/C(=C\c1ccc(-c2ccccc2)o1)C(=O)Nn1cnnc1,-1.3%,0.6,-7.4,0.9,-26.2,-0.4
CCOc1cc(C(N)=O)cc(Br)c1OC,-1.1%,2.9,-1.9,-2.2,-23.2,20.2
COc1ccccc1-n1cnnc1SC(C)C(=O)NCC1CCCO1 (stereo unspecified),4.6%,0.1,0.0,2.5,2.0,-13.4
Cc1ccc(C2(C)NC(=O)N(CC(=O)Nc3nc(-c4ccccn4)cs3)C2=O)cc1 (stereo unspecified),-4.6%,6.2,3.0,-91.6*,26.4,-2.6
CCc1ccc(OCC(=O)NNC(=O)c2c(CC)noc2C)cc1,-7.1%,0.9,-2.0,0.9,-4.8,29.3
C[C@@H]1CN([C@@H](C)CO)C(=O)c2cc(NC(=O)c3ccncc3)ccc2O[C@@H](C)CCCCO[C@@H]1CN(C)C(=O)Cc1ccccc1,-0.8%,0.3,-1.7,-4.9,-0.6,-6.7
Cc1ccc(Cn2c(C(=O)O)c(CNCc3ccccc3Cl)c3ccc(C)cc32)cc1,-0.4%,1.0,.,.,.,3.4
Cc1ccc(NC(=O)CN2C(=O)COc3ccc(C)cc32)nc1,0.7%[38.3 µM],-0.6,-1.0,0.7,-16.4,8.7
CCc1nc2ccc(C(=O)N(C)CC(=O)Nc3ccccc3C(F)(F)F)cc2nc1CC,0.2%,-1.3,-1.2,5.9,1.6,19.8
Cc1cc(=O)c(C(=O)O)nn1-c1ccccc1Cl,3.2%,-0.1,-0.8,-0.5,-8.8,-14.4
Cc1cccc(NC(=S)Nc2cccc3ccccc23)c1,-0.2%,2.7,6.9,-9.7,-12.2,5.0
